H5N1 antiviral: MDCK cell protection from H5N1 avian flu. cytopathic effect, luminescence, 72 h; stronger effect = higher value; no value below 0 was filed and about half of the inactive calls have no number; reference of the scale not given here. inhibition, % at 50 µM. AID 740. hit rate 0.07% among 96,000; in the data active means inhibition above about 25%
An asterisk follows results filed as active; i = inactive. The list is partial; count on the stated rates, not on these rows.

Molecule,H5N1 antiviral
Cc1ccc2c(c1)N(CCC(=O)NCc1ccc3c(c1)OCO3)C(=O)CO2,i
CC1CN(c2c3c(nc4ncnn24)CCCC3)CC(C)O1 (stereo not drawn),1.7
C[C@@H](Nc1nc(-c2ccccc2)nc2c1oc1ccccc12)C(=O)O,0.1
CCCc1cc(-c2[nH]ncc2-c2ccc(C(=O)OCC)o2)c(O)cc1O,2.3
CCOC(=O)c1[nH]c(C)c(C(=O)Nc2ccc(C)c(Cl)c2)c1C,i
Cc1noc(C)c1C(=O)NCCC1=CCCCC1,i
COc1ccc(C(=O)NCCc2ccc(S(N)(=O)=O)cc2)cc1OC,0.3
C=CCn1c(SCC(=O)N2CCOCC2)nc(O)c(Cc2ccccc2)c1=O,i
Cc1sc2nc(CSc3nnc(Cc4cccs4)n3C3CCCCC3)[nH]c(=O)c2c1C,1.5
Cc1ccccc1S(=O)(=O)Cc1ccc(C(=O)NCc2cccs2)o1,i
Clc1ccc(COc2ccccc2CNCc2cccnc2)cc1,1.4
COc1ccc(/C=N/NS(=O)(=O)c2ccccc2)cc1OS(=O)(=O)c1ccccc1,i
COc1ccc(NC(=O)C2CCN(S(C)(=O)=O)CC2)cc1,i
O=C(/C=C/c1c(Cl)cccc1Cl)Nc1ccncc1,i
CC(=O)c1cccc(NC(=O)C2CCN(S(=O)(=O)c3ccccc3)CC2)c1,13.1
COc1ccc(S(=O)(=O)CCC(=O)NCCc2ccc(C)cc2)cc1,i
COc1ccc(C2N=C(N)N=C(N)N2c2ccccc2OC)cc1OC (stereo not drawn),i
Cc1ccc(OC(C)C(=O)N2CCCc3ccccc32)cc1 (stereo not drawn),4.3
CC(=O)Nc1ccc(-c2cc(NC(C)=O)n(-c3ccccc3)n2)cc1,1.5
Nc1c(C(=O)NCc2ccccc2)sc2nc3c(cc12)C(=O)CCC3,1.2
O=C(COC(=O)c1ccc2c(c1)OCCO2)NCc1ccccc1,i
Cc1ccc(S(=O)(=O)N2CCN(C(=O)CN3CCCCC3)C2C(C)C)cc1 (stereo not drawn),1.3
Cc1nc2c(-c3ccc(F)cc3)c(C)nn2c(C)c1CCC(=O)N1CCC(Cc2ccccc2)CC1,3.8
COC(=O)CSc1nnc(CCc2nc3ccccc3[nH]2)n1C,i
Cc1cc(C)n(C(=O)c2ccc(C)c(S(=O)(=O)N3CCCC3)c2)n1,0.2
COc1ccccc1CNc1ncnc2c1nnn2Cc1ccccc1,i
CN(C)CCN1C(=O)c2oc3ccccc3c(=O)c2C1c1ccc(F)cc1 (stereo not drawn),0.8
Cc1ccc(S(=O)(=O)c2nc(Nc3nccs3)sc2Cl)cc1,0.3
CCOC(=O)c1c(C)sc2c1N(C(=O)CN1CCOCC1)c1cc(Cl)ccc1S2,0.8
Cc1ccc(C)c(-c2cc(C(=O)Nc3sc(C)c(C)c3C(N)=O)c3ccccc3n2)c1,3.0
O=C1N/C(=N/c2ccccn2)SC1Cc1ccccc1 (stereo not drawn),i
CCC(=O)N1CCc2cc(S(=O)(=O)NC(Cc3ccccc3)C(=O)NC3CCCCC3C)ccc21 (stereo not drawn),i
CCN(CC)S(=O)(=O)c1ccc(N2CCN(S(=O)(=O)c3ccccc3C#N)CC2)nc1,0.1
Cc1cc(C)n(S(=O)(=O)Cc2ccccc2)n1,0.6
O=C(CN1C(=O)NC(Cc2ccccc2)(Cc2ccccc2)C1=O)NCC1CCCCC1,i
Cc1ccc(-c2noc(CCC(=O)Nc3ccccc3C)n2)cc1,i
COc1ccc(CCNC(=O)COc2ccc(S(=O)(=O)NC3CCCCC3)cc2Cl)cc1,2.9
COC(=O)C1=C(C)N=C2SCCC(=O)N2C1c1cc(Br)ccc1OC (stereo not drawn),1.6
Cc1ccccc1-c1nc(CN2CCC(C(=O)NCCCN3CC(C)CC(C)C3)CC2)c(C)o1 (stereo not drawn),i
Cn1c(C(=O)NCc2ccccc2)cc2oc3ccccc3c21,i
CCOc1cc2[nH]c(=S)n(CCN3CCCCC3C)c(=O)c2cc1OCC (stereo not drawn),1.9
O=C(Cn1cc(C(=O)c2ccccc2)c2ccccc21)NCc1ccco1,0.4
Cn1ncc([N+](=O)[O-])c1C(=O)Nc1nc2ccccc2n1CCN1CCCCC1,i
CC1(C)CC(=O)C=C(Nc2ccc(OCC(F)(F)C(F)F)cc2)C1,0.1
CCC1CCCCN1C(=O)COC(=O)c1cc2ccccc2cc1O (stereo not drawn),i
C=CCn1c(SCc2c(Cl)cccc2Cl)nnc1-c1cccnc1,1.3
Cc1ccc(-n2nc(C)cc2NC(=O)c2ccc(C)s2)cc1,0.3
NC1=NS(=O)(=O)NC1c1ccc(Cl)cc1 (stereo not drawn),0.1
CC(C)Cn1c(C(C)NC(=O)Cc2ccccc2)nc2ccccc21 (stereo not drawn),0.9
CC/C(=N\OC(=O)c1ccc(OC(C)C)cc1)c1ccc(C)cc1,0.4
Cc1onc(-c2ccccc2Cl)c1C(N)=O,i
N/C(=N\c1nc2ccccc2o1)NC(=O)c1ccccc1F,0.7
COC(=O)c1ccc2ccn(CC(=O)NC(C)C)c2c1,i
COc1ccc(CNC(=O)COC(=O)c2n[nH]c3ccccc23)cc1OC,1.2
Cc1ccc(C(=O)OCC(=O)Nc2ccccc2)cc1NC(=O)c1ccco1,i
COc1ccccc1NC(=O)c1ccc(-c2ccccc2F)o1,i
CC(/C=C/c1ccc(C)o1)=C\C(=O)O,i
Nn1c(SCC(=O)Nc2ccc(S(=O)(=O)N3CCCC3)cc2)nnc1C(F)(F)F,1.4
O=C(CN1C(=O)NC2(CCCC2)C1=O)Nc1ccc(F)cc1,i
CCn1c(=O)cc(OCC(=O)Nc2nc(C)cs2)c2ccccc21,1.6

New compounds follow
Molecule,H5N1 antiviral
CCOC(=O)c1c(C)[nH]c(N=Nc2ccccc2)c1C,i
CCc1nnc(NS(=O)(=O)c2ccc(NS(=O)(=O)c3ccc(NC(C)=O)cc3)cc2)s1,i
O=C(c1cccc(-n2cnnn2)c1)N1CC=C(c2ccccc2)CC1,1.0
COC(=O)c1ccccc1Nc1ccccc1,0.2
NC(=O)C(c1ccccc1)c1ncc(C(F)(F)F)cc1Cl (stereo not drawn),0.1
COCCCn1c(SCC(=O)NC2CCCC2)nnc1-c1ccco1,i
CC1(C)NC(=O)N(CC(O)CN2C(=O)CCC2=O)C1=O (stereo not drawn),i
Cn1c(=O)[nH]c2cc3ccccc3cc21,0.2
CN(C)CCOCCSc1ccc(Cl)cc1,i
CCCC1CC(=O)OC1(C)C(=O)CSc1n[nH]c(-c2ccccc2)n1 (stereo not drawn),i
O=C(O)Cc1cc2c(s1)CCCCC2,i
Cn1cccc1Cc1nnc(SCC(=O)Nc2cccc(F)c2)n1-c1ccc(F)cc1,1.6
Cc1ccc(-c2nn(-c3ccccc3)cc2C2CC(c3cccs3)=NN2C(=O)CCC(=O)O)cc1 (stereo not drawn),0.9
CCOc1ccc(NC(=O)C2CCC(C)(C(=O)O)C2(C)C)cc1 (stereo not drawn),i
OCC1(C2=NOC(O)(C(F)(F)F)C2)CCCCC1 (stereo not drawn),i

A different layout for part of the listing above.
Cc1ccccc1-c1nc(CN2CCC(C(=O)NCCCN3CC(C)CC(C)C3)CC2)c(C)o1 (stereo not drawn)
  H5N1 antiviral: i
Cn1c(C(=O)NCc2ccccc2)cc2oc3ccccc3c21
  H5N1 antiviral: i
CCOc1cc2[nH]c(=S)n(CCN3CCCCC3C)c(=O)c2cc1OCC (stereo not drawn)
  H5N1 antiviral: 1.9

Further results:
Molecule,H5N1 antiviral
CCOc1ccccc1Nc1nc(-c2sc(NC(=O)c3ccccc3)nc2C)cs1,i
Cc1ccccc1CNCc1cccnc1,1.0
CC(=O)N1CCN=C1SCc1ccc(Br)cc1,6.9
O=C(NCCc1cccs1)C12CN(Cc3ccccc3)CC1C(c1cccc([N+](=O)[O-])c1)=NO2 (stereo not drawn),i
O=[N+]([O-])c1cc([N+](=O)[O-])c(N2CCOCC2)cc1NCc1ccccc1,i
Cc1csc(SCc2c(C(=O)O)oc3ccccc23)n1,i
CCCCC(=O)NCc1ccc2c(c1)cc(C)n2C,i
CCN1CCN(C(=O)c2ccc(COc3ccc(Cl)cc3)o2)CC1,1.6
Cc1ccc(S(=O)(=O)Nn2c(C)ccc2C)cc1,i
COc1cc(-c2noc(C3CCCN(S(=O)(=O)c4cccc(Cl)c4)C3)n2)cc(OC)c1OC (stereo not drawn),i
CC(=O)N1CCN(c2nnnn2-c2ccccc2)CC1,i
COC(=O)Nc1c(C)n(C)n(-c2ccccc2)c1=O,0.1
CN1CCN(C(=O)c2ccc(-n3cccc3)cc2)CC1,0.3
O=C(O)c1cccc(CSc2nnc(-c3ccco3)o2)c1,i
Cc1nnc(NC(=O)c2sc3ccccc3c2Cl)s1,2.3

Gathered by group, the entries above with a COOH group.
Molecule,H5N1 antiviral
C[C@@H](Nc1nc(-c2ccccc2)nc2c1oc1ccccc12)C(=O)O,0.1
CC(/C=C/c1ccc(C)o1)=C\C(=O)O,i
O=C(O)Cc1cc2c(s1)CCCCC2,i
Cc1ccc(-c2nn(-c3ccccc3)cc2C2CC(c3cccs3)=NN2C(=O)CCC(=O)O)cc1 (stereo not drawn),0.9
CCOc1ccc(NC(=O)C2CCC(C)(C(=O)O)C2(C)C)cc1 (stereo not drawn),i
Cc1csc(SCc2c(C(=O)O)oc3ccccc23)n1,i
O=C(O)c1cccc(CSc2nnc(-c3ccco3)o2)c1,i

(continued)
canonical_smiles | H5N1 antiviral
COC(=O)c1ccc(Nc2nc(C)cc(C)n2)cc1 | 0.1
Cc1cccc(-c2nnc3sc(-c4ccccc4C)nn23)c1 | 6.7
O=c1ccc2cc(S(=O)(=O)N3CCN(c4ccccc4)CC3)ccc2o1 | i
Cc1cccc(SCc2noc(C(=O)NC(C)C)c2C(=O)O)c1 | 1.4
CCOc1ccccc1NC(=O)c1cc(CC(C)C)oc1C | 0.0
COC(=O)c1cccc(COC(=O)c2ccccc2NC(=O)c2ccco2)c1 | i
COc1ccc(NC(=O)C2CCN(C(=O)c3cccs3)CC2)c(OC)c1 | i
COc1ccc(-c2nc(C#N)c(NCc3ccc(C)cc3)o2)cc1OC | 1.2
COCCCNC(=O)C1CCN(c2ncccn2)CC1 | 1.1
Clc1ccc2nc3ccccn3c2c1 | 0.4
O=C(Cn1cnc2c(nnn2-c2ccccc2)c1=O)N1CCCc2ccccc21 | i
O=c1[nH]c2ccc(Cl)cc2c(-c2ccccc2)c1N1CCN(CCO)CC1 | i
O=C(C/C=N/OCc1ccccc1F)c1cnc(-c2ccc(Cl)cc2)s1 | i
COc1ccc(C(CNC(=O)c2cc(C)oc2C)N2CCOCC2)cc1 (stereo not drawn) | i
COc1ccc(Oc2nc(SC)nc3ccccc23)cc1 | 0.9
CCOc1ccc(-c2nnc(-c3cccnc3)o2)cc1OCC | 1.9
O=c1c(CN2CCN(c3cccc(Cl)c3)CC2)coc2c(Cl)cc(Cl)cc12 | i
COc1ccc(S(=O)(=O)N(C)c2c(C)n(C)n(-c3ccccc3)c2=O)cc1OC | 1.4
CCCc1cc(=O)[nH]c(SCc2cc(C(=O)OC)c(C)o2)n1 | i
N#Cc1cn(CC(=O)N2CCCC2)c2ccccc12 | 1.5
COc1ccc(C(=O)c2c(C)oc3ccc(O)c(CN4CCOCC4)c23)cc1 | 0.4
O=C1NCCCC2c3c(cc(Br)c(O)c3Br)OC12N1CCOCC1 (stereo not drawn) | 0.8
O=C(NC1CCCCCC1)c1c(O)c2ccccc2[nH]c1=O | i
CCn1c(SCC(=O)N2CCC(C)CC2)nnc1-c1ccc(S(=O)(=O)N2CCN(C)CC2)cc1 | 0.6
CCCn1c2c(c(O)c(C(=O)Nc3ccc(OCC)cc3)c1=O)CCCC2 | i
CS(=O)(=O)N(CC(=O)NC1CCCC1)Cc1ccc(Cl)cc1 | i
Cc1nn(C)cc1C(C(=O)NC1CCCCC1)N(C(=O)Cc1cccs1)c1ccc(C(C)C)cc1 (stereo not drawn) | 8.9
COc1ccc(C(=O)N(CN2CCCC2=O)c2ccc(C)cc2)cc1 | 1.2
CN1CSC2=C(C#N)C(c3cccc(OCc4ccccc4)c3)CC(=O)N2C1 (stereo not drawn) | i
Cc1ccc(Cn2ccc(NC(=O)c3cc(-c4ccc(Br)cc4)on3)n2)cc1 | 0.1
CC(C)CNS(=O)(=O)c1ccc(CCC(=O)Nc2ccc3c(c2)OCO3)cc1 | 0.7
COc1ccc(C)cc1S(=O)(=O)N(C)CC(=O)N1CCCCCC1 | 1.1
O=C(C#Cc1ccccc1)c1cccc([N+](=O)[O-])c1 | i
CC(C)(C)n1ncc2c(=O)n(CC(=O)Nc3ccccc3)cnc21 | 0.0
Cc1ccc(CNC(=O)COC(=O)c2ccc(S(=O)(=O)N3CCCC3)cc2)cc1 | i
CCOC(=O)/C(C#N)=C/c1cc(C)n(-c2ccccc2)c1C | i
CCCCNC(=O)NS(=O)(=O)c1ccc(C(=O)OC(C)C)o1 | i
O=C(COc1ccc2ccccc2c1)NCCNC(=O)COc1ccc2ccccc2c1 | i
CCN1CCN(CC(=O)Nc2cc(F)ccc2C)CC1 | i
CCCOc1ccc(/C(O)=C2/C(=O)C(=O)N(CCN(C)C)C2c2ccc(OC)c(OC)c2)cc1 (stereo not drawn) | 1.3
O=c1oc2ccc(Br)cc2cc1-c1nc2ccccc2o1 | 0.5
Cn1c(/C=N/n2cnnc2)nc2ccccc21 | 0.2
O=C1C(=O)N(CCN2CCOCC2)C(c2ccncc2)/C1=C(/O)c1ccc2c(c1)OCO2 (stereo not drawn) | i
CC(C)Oc1cccc(C(=O)Nc2ccc(NC(=O)c3ccco3)cc2)c1 | 1.0
O=C1OCCC1Sc1nnc(-c2ccc(Br)cc2)o1 (stereo not drawn) | 0.5
COCc1cc(C)nc(OCC(=O)N/N=C/c2ccc(-c3cc([N+](=O)[O-])ccc3C)o2)c1C#N | 0.2

3 entries from above, as labelled records.
> Cc1nc2c(-c3ccc(F)cc3)c(C)nn2c(C)c1CCC(=O)N1CCC(Cc2ccccc2)CC1
  H5N1 antiviral = 3.8

> COC(=O)CSc1nnc(CCc2nc3ccccc3[nH]2)n1C
  H5N1 antiviral = i

> Cc1cc(C)n(C(=O)c2ccc(C)c(S(=O)(=O)N3CCCC3)c2)n1
  H5N1 antiviral = 0.2

Screening results as filed in PubChem.
